StopGo reporter: High Throughput Screening for Foot and Mouth Disease Virus Antivirals; human cells with a luciferase reporter of 2A StopGo recoding; control for the full effect not named in the record; Potency, µM (series often up to 57.9 µM), inactives show at the top dose signal change, negative = less light; 410,000 compounds, 1.2% hits; AID 1159524, 2015; active = well fitted falling curve with a large enough effect; inconclusive = small, poorly fitted or top-dose-only effect; inactive = no such curve, though single readings can be large or run the other way; tested in HEK293T cells; also: % is scaled to controls: 0 for no effect and ±100 for the full control effect; nearly all actives have a fitted effect of over 45% in size; luciferase light after 4 h
Lassa entry inh: qHTS for Inhibitors of binding or entry into cells for Lassa Virus. Potency, µM (top dose mostly 37.9 µM), for inactives: at the top dose activity change, negative = inhibition, hits mostly inhibitors. AID 540256, 2011. 300,000 compounds, 1.2% hits. Lassa virus pseudotype entry inhibition, cell reporter; control for the full effect not named in the record; active means well fitted inhibition curve with a large enough effect; inconclusive means small, poorly fitted or top-dose-only effect, or effect the other way; inactive means flat fitted curve, though single readings scatter; tested in HEK293 cells; also: % is scaled to controls: 0 for no effect and ±100 for the full control effect; nearly all actives have a fitted effect of over 50% in size; luciferase read-out
Marburg entry inh: qHTS for inhibitors of binding or entry into cells for Marburg Virus. Potency, µM (top dose mostly 37.8 µM), inactives show at the highest dose activity change, negative = inhibition, usual class: inhibitors. 300,000 compounds, 1.8% hits. Marburg virus pseudotyped entry inhibition, cell reporter; control for the full effect not named in the record; about a third of the inactives were read at about 46 µM; active = well fitted inhibition curve with a large enough effect; inconclusive = small, poorly fitted or top-dose-only effect, or effect the other way; inactive = flat fitted curve, though single readings scatter; tested in HEK293 cells; about a fifth of its hits are not listed in these tables; also: % is scaled to controls: 0 for no effect and ±100 for the full control effect; luciferase read-out
Cruzain Triton: qHTS Assay for Promiscuous and Specific Inhibitors of Cruzain (with detergent); Cruzipain (Trypanosoma cruzi), P25779; purified cruzain, Z-FR-AMC fluorescence, 0.01% Triton; Potency, µM, inactives show max response, negative = inhibition, usual class: inhibitors; 200,000 compounds, 0.43% hits; AID 1478, 2009; active = well fitted curve in the direction sought with a large enough effect; inconclusive = small, poorly fitted or top-dose-only effect, or another doubt; inactive = no such curve, though single readings can be large; an effect the other way counts as inactive or inconclusive;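 also: plate controls were neutral wells for no effect and buffer without enzyme for full effect; nearly all actives have a fitted effect of over 40% in size; top concentration of the series not given in the record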
Target sequence (P25779 123-467 limits assumed): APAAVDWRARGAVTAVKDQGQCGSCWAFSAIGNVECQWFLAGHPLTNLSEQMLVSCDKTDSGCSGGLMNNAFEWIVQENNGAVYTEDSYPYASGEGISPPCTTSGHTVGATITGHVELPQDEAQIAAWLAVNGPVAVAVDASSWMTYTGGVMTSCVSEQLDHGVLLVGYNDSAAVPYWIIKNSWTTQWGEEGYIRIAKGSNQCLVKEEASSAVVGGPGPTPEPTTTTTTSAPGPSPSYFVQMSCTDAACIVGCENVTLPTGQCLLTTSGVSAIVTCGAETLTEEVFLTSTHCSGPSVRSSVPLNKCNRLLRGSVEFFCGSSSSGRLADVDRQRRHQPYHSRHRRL
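Detergent-containing run (0.01% Triton X-100) in acetate buffer pH 5.5 with 5 mM DTT: enzyme at 1.5 nM final, 15 min compound preincubation at room temperature, then 2 uM Z-FR-AMC substrate. Activity taken as 60 s fluorescence increase at 360/450 nm.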
SARS PLP yeast: qHTS of Yeast-based Assay for SARS-CoV PLP; Potency, µM (highest dose often 32.9 µM), for inactives: at the top dose activity, positive = growth rescue; AID 485353, 2010; 330,000 compounds, 0.19% hits; S. cerevisiae expressing SARS-CoV PLpro, growth rescue; control for the full effect not named in the record; also: 0% is about no effect; nearly all actives have a fitted effect of over 55% in size; growth read by luminescence after 48 h
NS1 function inh: qHTS Assay for Inhibitors of Influenza NS1 Protein Function. S. cerevisiae slowed by influenza A NS1, growth recovery by OD600. Potency, µM (top dose mostly 46.1 µM), for inactives: top-dose activity, positive = more growth. 270,000 compounds, 0.4% hits. AID 2326, 2010; also: actives are rising curves; nearly all actives have a fitted effect of over 50% in size
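Compounds were scored for reversing the slow growth caused by influenza A NS1 in S. cerevisiae, measured by optical density at 600 nm. Assay medium contained 2% galactose at pH 6.0; NS1-free yeast of the same strain were the positive control.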
RE007 growth inh: qHTS Assay for Inhibitors of the HIV-1 protein Vpr | S. pombe RE007 Vpr strain, BacTiter-Glo ATP luminescence, 24 h; control for the full effect not named in the record | Potency, µM (top dose mostly 92.2 µM), without a hit: at the top dose activity change, negative = less growth | 360,000 compounds, 0.21% hits | AID 651644, 2012; active = well fitted falling curve with a large enough effect; inconclusive = small, poorly fitted or top-dose-only effect; inactive = no such curve, though single readings can be large or run the other way;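 also: % is scaled to controls: 0 for no effect and ±100 for the full control effect; nearly all actives have a fitted effect of over 50% in size; the assay follows cell death caused by Vpr and the record does not say whether a fall means rescue or toxicity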
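Fission yeast RE007 carrying one integrated HIV-1 vpr copy, seeded at OD 0.01 in PMG+AL medium with 23 nL pinned compound. Grown 24 h at 30 degrees; viability read by BacTiter-Glo luminescence after 5 min.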
Cruzain noTriton: qHTS Assay for Promiscuous and Specific Inhibitors of Cruzain (without detergent) | purified cruzain, Z-FR-AMC fluorescence, no detergent | AID 1476, 2009 | Cruzipain (Trypanosoma cruzi), P25779 | Potency, µM, for inactives: max response, negative = inhibition, most hits filed as inhibitors | 200,000 compounds, 2.3% hits; active = well fitted curve in the direction sought with a large enough effect; inconclusive = small, poorly fitted or top-dose-only effect, or another doubt; inactive = no such curve, though single readings can be large; an effect the other way counts as inactive or inconclusive;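 also: plate controls were enzyme without inhibitor for no effect and buffer without enzyme for full effect; nearly all actives have a fitted effect of over 40% in size; top concentration of the series not given in the record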
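Purified cruzain at 1.5 nM, pre-incubated 15 min with compound at room temperature in 100 mM sodium acetate pH 5.5, 5 mM DTT, 0.00005% Triton X-100. Reaction started with 2 uM Z-FR-AMC; AMC fluorescence increase over 60 s gives rate.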
The depositor's hits bear a star; ? = inconclusive; / = not tested or not shown; & = joins results of further samples; [ ] = dose if it differs, or a comment. Unless noted, calls follow the shape of the dose curve; as a rule, active means well fitted rising curve with a large enough effect; inconclusive means small, poorly fitted or top-dose-only effect; inactive means no such curve, though single readings can be large or run the other way. Potency is read from the fitted curve at half-maximal effect.

SMILES	StopGo reporter	Lassa entry inh	Marburg entry inh	Cruzain Triton	SARS PLP yeast	NS1 function inh	RE007 growth inh	Cruzain noTriton
CCOC(=O)c1c(C)[nH]c(C)c1S(=O)(=O)NCCCN1CCOCC1	4.6%	/	/	/	-2.7%	9.5%	17.0%	/
Cc1ccc(NC(=O)c2ocnc2C)cc1Cl	80.2%[activator]	?	?	0.0%	-10.0%	-17.0%	-18.0%	5.7%
FC(F)(F)c1cc(N2CCNCC2)c2ccccc2n1	-5.0%	?	-1.6%	/	1.1%	1.7%	-9.9%	/
CC(C)n1c(=N)c(C(=O)NCc2ccccc2)cc2c(=O)n3ccccc3nc21	-16.5%	19.2%[46.1 µM]	-1.5%[46.1 µM]	-4.9%	/	/	/	16.4%
CCCCCNc1nc2sc3c(c2c(=O)n1-c1cccc(Cl)c1)CCN(C)C3	-7.3%	-2.1%	?	/	0.4%	9.5%	6.1%	/
COc1ccccc1NC(=O)CSc1nc2ncccc2[nH]1	-25.1%	-2.3%	-17.8%	-4.6%	-0.6%	4.7%	-2.4%	4.6%
O=C(CSc1nnnn1Cc1ccccc1)c1ccc(F)cc1	26.7%	/	/	/	-0.2%	7.94µM*	7.1%	/
COc1cccc(N=Nc2c(C)[nH]n(-c3ccccc3)c2=O)c1	24.4%	/	/	/	-4.3%	0.5%	-7.4%	/
COc1cccc(NC(=O)c2ncn[nH]2)c1	11.7%	3.5%	21.6%	3.1%	2.9%	9.1%	0.8%	-2.6%
O=C(NNc1c(Cl)cc(Cl)cc1Cl)c1n[nH]c(=O)c2ccccc12	-18.5%	/	/	/	0.8%	-0.4%	-16.3%	/
O=C(NCCN1CCc2ccccc2C1)C1CCN(S(=O)(=O)N2CCC3(CC2)OCCO3)CC1	/	9.7%	-4.1%&-0.4%	3.3%	2.3%	-7.0%	-26.1%	-5.7%
Cn1cccc1/C=C1\SC(=Nc2ccc(O)cc2)NC1=O	36.3%[activator]	/	/	/	0.0%	3.1%	-3.5%	/
COc1ccccc1C(=O)NNC(=O)c1ccc(NC(=O)CC(C)C)cc1	1.3%	/	/	/	-0.3%	4.2%	19.1%	/
COC(=O)CC1NC2CCCCC2NC1=O (stereo not given)	-20.6%	6.3%	3.5%[46.1 µM]	-0.2%	0.3%	25.3%	-3.5%	1.0%
O=C1NC(=O)c2cc(Oc3ccc([N+](=O)[O-])cc3)ccc21	-9.6%	/	/	/	14.3%	-8.8%	8.2%	/
CSc1nc(N(C)NC(=O)c2ccc(Cl)cc2)c2ccccc2n1	0.0%	?	?	-7.6%	-1.6%	8.9%	-3.0%	5.4%
CCOC(=O)c1cnn2c(C(F)(F)F)cc(-c3ccc(Br)cc3)nc12	0.0%	-9.2%[46.1 µM]	/	2.2%	/	/	/	6.1%
COc1ccccc1CN1CCN(Cc2nc(-c3cccs3)no2)CC1	14.8%	/	/	/	-0.2%	0.7%	-13.0%	/
N=C(N)N1CCc2ccccc21	6.8%	17.1%	9.4%[46.1 µM]	/	1.4%	5.5%	-4.7%	/
O=C(CN1C(=O)/C(=C/c2ccccc2F)Sc2ccccc21)NCc1cccnc1	?	0.8%	-26.3%	/	1.5%	/	11.8%	/
Cc1ccc(Nc2nc3ccccc3s2)cc1	-2.7%	?	?	-10.4%	3.3%	-0.1%	-28.1%	7.6%
Cn1cc(CNC(=O)c2cc(-c3ccccc3)nc3ccc(Br)cc23)cn1	0.3%	14.5%	17.3%	-5.5%	9.8%	11.5%	0.6%	-10.3%
COc1ccc(CCNC(=O)C2CCCN2C(=O)Nc2ccccc2)cc1OC (stereo not given)	-5.3%	/	/	/	-7.5%	-38.5%	1.6%	/
Cc1cc(C)n(-c2ccc(C(=O)OCC(=O)Nc3cc(Cl)ccc3[N+](=O)[O-])cc2)n1	-17.9%	-6.0%	?	-3.0%	-3.1%	7.3%	-4.2%	-26.3%
O=C(c1ccc(CS(=O)(=O)c2ccc(Br)cc2)o1)N1CCOCC1	-20.4%	/	/	1.0%	5.5%	-4.9%	15.3%	-3.1%
COc1ccccc1NC(=O)CN1CCN(c2ccccc2)CC1	?	/	/	/	-0.8%	-30.3%	2.4%	/
Cc1csc(NC(=O)CSc2nc3sc(C)c(C)c3c(=O)[nH]2)n1	-8.9%	14.9%	16.0%	0.3%	-10.9%	2.1%	8.8%	-1.5%
CCn1nc(CC(C)C)cc1C(=O)N1CCCC(Nc2ccc(F)cc2)C1 (stereo not given)	-1.9%	-22.5%	-4.3%	/	1.7%	-12.6%	9.7%	/
Cc1cccc(NC(=O)NCCCCc2ccccc2)c1	68.7%[activator]	/	/	/	-10.1%	-109.3%	15.0%	/
COC(=O)CSc1nc(N)c(NC(=O)c2ccc(OC)c(OC)c2)c(=O)[nH]1	-6.1%	/	/	0.8%	0.4%	1.9%	-7.3%	-5.1%
Cc1cc(S(=O)(=O)N2CCN(Cc3ccc4c(c3)OCO4)CC2)cc(C)c1N1CCCC1=O	?	-8.8%	-18.0%&-18.0%	-0.4%	-4.8%	-13.8%	15.2%	9.5%
CCOc1ccc(N(CC(=O)Nc2ccccc2CC)S(=O)(=O)c2c(C)[nH]c(=O)[nH]c2=O)cc1	-1.5%	6.0%[46.1 µM]	?	2.3%	/	/	/	-12.8%
COc1cccc(-n2c(SCC(N)=O)nnc2-c2c[nH]c3ccccc23)c1	-0.2%	/	/	-1.7%	0.1%	6.3%	-3.6%	-7.8%
Cn1c(-c2ccccc2)cnc1NCc1ccc(-c2ccccc2)cc1	-4.4%	/	/	/	-13.7%	-51.1%	-3.3%	/
CCOC(=O)N1CCN(C(=O)c2nn(-c3cc(OC)cc(OC)c3)c(=O)c3ccccc23)CC1	/	/	1.0%	9.2%	-4.8%	-16.5%	/	29.7%
CCCC(=O)OCCNc1cc(SCCC(=O)OC)c2nonc2c1[N+](=O)[O-]	-14.4%	9.1%	?	-21.0%	-37.3%	-23.3%	2.8%	-1.2%
O=C(C1=C[C@H](c2ccc3c(c2)OCO3)C[C@H](OCCCCO)O1)N1CCOCC1	-19.3%	/	/	/	2.6%	-0.9%	1.4%	/
Cc1ccccc1NC(=S)N(C)CCc1ccccn1	-4.9%	5.3%	23.7%	-1.7%	1.3%	2.5%	4.0%	5.7%
Cc1cc(OC(=O)c2cc(-c3ccc4c(c3)OCCO4)on2)ccc1Cl	3.0%	10.5%[46.1 µM]	3.9%[46.1 µM]	-3.8%	/	/	/	7.2%
Nc1cnc(Br)cc1Br	-7.2%	0.6%	?	1.2%	27.8%	0.3%	11.1%	-4.3%
CCOC(=O)c1nnn2c1nc(Nc1cccc(C(F)(F)F)c1)c1ccccc12	-17.4%	21.5%	?	/	1.1%	2.1%	-1.4%	/
Cc1cc(C(=O)CCC(=O)NCc2ccccc2F)c(C)s1	1.7%	?	-8.6%[46.1 µM]	/	6.1%	/	-13.9%	/
CCOC(=O)C(C)c1ccc2cc(OC)ccc2c1 (stereo not given)	13.7%	-1.5%	2.7%	-4.1%	1.0%	-17.6%	-1.8%	0.8%
CC(C)CN(C(=O)CCCc1nc2ccccc2c(=O)[nH]1)c1c(N)n(Cc2ccccc2)c(=O)[nH]c1=O	-24.2%	8.2%	26.0%	/	-2.7%	/	-13.8%	/
COc1cc(C(=S)N2CCOCC2)ccc1OC(=O)c1ccc(Br)cc1	-18.5%	/	/	/	2.0%	-38.0%	5.9%	/
Cc1cc(C(=O)COC(=O)CNS(=O)(=O)c2ccc3ccccc3c2)c(C)n1-c1ccccc1	15.2%	-0.8%	?	-1.8%	-25.3%	?	10.0%	-12.7%
COc1ccc(CCC(C)NCC(C)c2ccccc2)cc1 (stereo not given)	4.1%	?	?	/	/	5.8%	-10.4%	/
COc1cccc(OC)c1OCCCOc1c(OC)cccc1OC	-18.4%	0.6%	-13.5%[46.1 µM]	2.8%	1.2%	-7.4%	-3.7%	-0.7%
c1ccc2c3c([nH]c2c1)CNCC3	-11.4%	-3.6%	6.1%&6.1%&6.1%	-2.5%	-9.6%	-9.2%	2.3%	4.9%
O=C(Cc1cccs1)NCc1ccncc1	10.0%	1.1%	18.9%	2.9%	-1.7%	0.8%	-12.5%	-8.7%
O=C(CCCN1C(=O)NC2(CCCC2)C1=O)NCc1ccccc1	-16.4%	-22.5%	5.1%	/	-2.2%	/	-28.2%	/
COc1ccc(-c2cc(-c3ccccc3)nc(NN)n2)cc1OC	-13.9%	?	?	/	0.6%	?	-0.3%	/
O=C(CN1c2ccccc2Sc2ccccc21)NNC(=S)Nc1ccc(Cl)cc1Cl	17.1%	?	-1.4%	7.5%	4.6%	20.4%	-9.2%	10µM*
O=[N+]([O-])c1ccc(/C=N/NC(=S)Nc2ccccc2C(F)(F)F)o1	-9.1%	-3.9%	?	-16.1%	-11.0%	-5.0%	-21.2%	-3.4%
NC(=O)CSc1nnc(-c2ccc(S(=O)(=O)N3CCCC3)cc2)n1Cc1ccco1	-2.8%	-1.4%	6.3%	1.2%	4.1%	-1.5%	11.3%	-3.5%
Nc1nc(Nc2ccc(Cl)cc2)nc(NCc2ccco2)c1[N+](=O)[O-]	7.3%	-16.9%	?	/	-1.7%	-1.9%	-3.5%	/
CCc1ccccc1NC(=O)C1=CC(c2ccc3c(c2)OCO3)=NS(=O)(=O)N1C	-9.0%	18.1%[46.1 µM]	-15.4%[46.1 µM]	-2.8%	/	/	/	3.2%
COc1ccccc1NC(=O)Nc1c(C)nn(C)c1C	-15.6%	-12.5%	-0.1%[46.1 µM]	/	0.5%	/	8.5%	/
COc1ccc2[nH]c3nc(SCc4nnc(-c5ccccc5)o4)nnc3c2c1	-13.3%	?	-25.1%	-1.1%	0.1%	8.8%	24.8%	-0.6%

Compound activity from PubChem.
